HPGD block = inhibitors of human 15-hydroxyprostaglandin dehydrogenase (HPGD) | P15428 | purified HPGD, NADH fluorescence kinetic, PGE2 substrate | Potency, µM, for inactives: top-dose activity change, negative = inhibition, usual class: inhibitors | hit rate 4.3% among 150,000; active = well fitted inhibition curve with a large enough effect (not every such curve was filed as active); inconclusive = small, poorly fitted or top-dose-only effect, or another doubt; inactive = no such curve, though single readings can be large or run the other way;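 further: top concentration of the series not given in the record; plate controls included wells without enzyme; inactives centre near -10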
Target sequence (P15428 whole entry, looked up): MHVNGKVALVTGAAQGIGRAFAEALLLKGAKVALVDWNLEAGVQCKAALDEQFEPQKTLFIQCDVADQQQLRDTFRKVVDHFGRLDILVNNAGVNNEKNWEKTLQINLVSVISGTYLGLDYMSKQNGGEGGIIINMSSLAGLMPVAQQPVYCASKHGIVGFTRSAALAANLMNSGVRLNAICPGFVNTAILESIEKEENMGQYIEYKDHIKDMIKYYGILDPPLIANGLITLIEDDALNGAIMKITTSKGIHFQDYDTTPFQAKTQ
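20 nM HPGD preincubated 15 min at room temperature with compound in 50 mM Tris-HCl pH 8, 0.01% Tween 20. Started with 1 mM NAD+ and 30 uM prostaglandin E2; NADH fluorescence (360/450 nm) read 5 times over 30-s intervals, last minus first.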
* hit, by the source's call; ? = inconclusive; & = joins results of further samples. On the % scale 0 is the no-effect control and ±100 the full control effect; potency means the concentration at half of the fitted maximal effect. The list is partial, so the mix of outcomes need not match the whole.

SMILES	HPGD block
O=C(COc1ccc(/C=N/NC(=O)c2cc3ccccc3o2)cc1Br)Nc1ccccc1	?
CCOc1ccc(NC(=S)Nc2cc(OC)c(Cl)cc2OC)cc1	-26%
Cc1nn(C)c(C(=O)Nc2ccn(Cc3c(F)c(F)cc(F)c3F)n2)c1[N+](=O)[O-]	-7%
CCc1ccc(OCC(=O)N2c3ccccc3CCc3ccccc32)cc1	-23%
CCOC(=O)Cc1c(C)nc2c(-c3ccc(OC)cc3)c(C)nn2c1C	-15%
CC(C)(C)n1nnnc1C(c1ccccn1)N(Cc1ccccc1)Cc1ccc(Cl)cc1 (stereo unspecified)	-8%
Cc1ccc(N2C(=O)CC(n3nc(C)cc3C)C2=O)cc1 (stereo unspecified)	-1%
Cc1ccc(C)c(C(=O)CSc2nnnn2C(C)C)c1	-16%
Cc1ccc(S(=O)(=O)NCC(C)NS(=O)(=O)c2ccc(C)cc2)cc1 (stereo unspecified)	-6%
CS(=O)(=O)N1CCN(c2nc3ccccc3s2)CC1	-5%
CCn1c(O)c(N=NC(=O)CNc2ccc(C)cc2)c2ccccc21	-5%
O=C(COc1ccccc1Br)NC1CCCC1	?
CC(Cn1cnc2ccccc21)C(=O)O (stereo unspecified)	-9%
CCOc1ccccc1N1CCN(S(=O)(=O)c2ccc(F)c(F)c2)CC1	-12%
Cc1ccccc1-n1nc2c(c1NC(=O)c1cc3ccccc3oc1=O)CS(=O)(=O)C2	-23%

Taken from above.
`Cc1ccc(S(=O)(=O)NCC(C)NS(=O)(=O)c2ccc(C)cc2)cc1` (stereo unspecified) | HPGD block: -6%
`Cc1ccc(N2C(=O)CC(n3nc(C)cc3C)C2=O)cc1` (stereo unspecified) | HPGD block: -1%
`CCOc1ccccc1N1CCN(S(=O)(=O)c2ccc(F)c(F)c2)CC1` | HPGD block: -12%
`CCOc1ccc(NC(=S)Nc2cc(OC)c(Cl)cc2OC)cc1` | HPGD block: -26%
`CC(C)(C)n1nnnc1C(c1ccccn1)N(Cc1ccccc1)Cc1ccc(Cl)cc1` (stereo unspecified) | HPGD block: -8%
`CCn1c(O)c(N=NC(=O)CNc2ccc(C)cc2)c2ccccc21` | HPGD block: -5%
`CCOC(=O)Cc1c(C)nc2c(-c3ccc(OC)cc3)c(C)nn2c1C` | HPGD block: -15%

Further entries.
SMILES	HPGD block
Cc1cccc2c1N(CC(=O)OC(C)C)C(=O)C2=O	-15%
COCCn1c(SCc2ccc(C(=O)OC)o2)nc2ccccc2c1=O	-14%
COC(=O)c1ccc(OCC2c3cc(OC)c(OC)cc3CCN2C(=O)C2CC2)cc1 (stereo unspecified)	-24%
N#CC1=C2C=CC=CN2CC1=O	?
O=C(Nc1ccccc1Oc1ccccc1)c1ccccc1F	-15%
COc1ccc(N(C)C(=O)CCS(=O)(=O)c2cccc3nonc23)c(OC)c1	-5%
Cc1ccc(/C=C/C(=O)Nc2cccc3ncccc23)o1	32µM*
CC1(C)CC2(CC(C)(C(=O)CSc3nc4ccccc4s3)OC2=O)C(=O)O1 (stereo unspecified)	-9%
CCCCN(CC)C(=O)CSc1cc(=O)n(C)c2ccccc12	7.1µM*
CCOC(=O)c1cc2occc2n1Cc1c(F)cccc1Cl	-16%
Cc1ccc(Cn2cccc(-c3nc4ccccc4s3)c2=O)cc1	?
CN(/C=C/C(=O)C(F)(F)C(F)(F)F)Cc1ccccc1	-4%
CCOC(=O)c1sc(NC(=O)CSc2n[nH]c(-c3ccc(Cl)cc3Cl)n2)c(C#N)c1C	-12%
COc1cc2[nH]c(=S)nc(NCC3CCCO3)c2cc1OC (stereo unspecified)	-7%
O=C(CC1Nc2ccccc2NC1=O)NCc1cccnc1 (stereo unspecified)	?
Nc1nnc(SCC(=O)NCc2ccc3c(c2)OCO3)s1	-10%
CCOC(=O)CSc1nnc(-c2ccco2)n1-c1ccc(C)cc1	-10%
CCS(=O)(=O)N1CCCC(C(=O)NCCN2CCC(Cc3ccccc3)CC2)C1 (stereo unspecified)	-13%
Cc1ccc(S(=O)(=O)N2CC=C(c3ccc(F)cc3)CC2)cc1	-14%
Cc1ccc(/C=C/C(=O)NCc2ccccn2)o1	-21%
CSc1nnc(-c2ccccc2Cl)n1N	-30%
O=C(CSC1=NCCS1)N1CCc2ccccc21	1%
Cc1ccc(/C(=C\CN2CCCC2)c2ccccn2)cc1	-21%&-13%
C(=C\CSc1ncn[nH]1)/CSc1ncn[nH]1	-13%
Cc1ccc(NC(=O)COC(=O)C2=COCCO2)cc1	-5%
COc1cccc(C2=NOC(C(=O)N3CCN(C(=O)c4ccco4)CC3)C2)c1 (stereo unspecified)	-13%
O=C(CN1CCOCC1)Nc1ccc(NC(=O)CN2CCOCC2)c(Cl)c1	-6%
C(=N\n1cnnc1SCc1ccccc1)/c1ccco1	-10%
CN(c1ccc(C(=O)NCc2ccc3c(c2)OCO3)cc1)S(C)(=O)=O	-13%
Cn1c(CN2CCOCC2)c(C#N)c2ccccc21	?
O=C(CSc1oc(-c2ccccc2)nc1S(=O)(=O)c1ccc(F)cc1)NCC1CCCO1 (stereo unspecified)	?
O=C(c1ccc(F)cc1)[C@@H]1[C@@H](C(=O)c2ccccc2)[C@@]2(C(=O)Nc3ccccc32)[C@H]2c3ccccc3C=CN12	-19%
Cc1ccc(-c2csc3ncnc(Oc4ccc5c(C)cc(=O)oc5c4)c23)cc1	?
CC(/C=C/c1ccco1)=N\NC(=O)c1cccnc1	-28%
O=C(Nc1ccc(Cl)cc1)N(Cc1nc2ccccc2c(=O)[nH]1)Cc1cccs1	-5%
Cc1ccc2cc(/C=C(\C#N)C(N)=O)c(N3CCCCC3)nc2c1	-16%
COc1ccc(C(NC(=O)CNC(C)=O)C(=O)Nc2ccc(C(C)C)cc2)cc1 (stereo unspecified)	-4%
O=C(O)CSCC(=O)Nc1ccc(C(=O)O)cc1	-6%
Cc1cc(C)c2c(N=NN3CCOCC3)[nH]nc2n1	-19%
Cc1ccc(S(=O)(=O)N/N=C/c2c(F)cccc2Cl)cc1	-9%
C=CCc1cccc2cc(C(=O)NC)c(=O)oc12	-26%
CCC1CCCCN1C(=O)C1CC(c2cc(Cl)c(OC)cc2OC)=NO1 (stereo unspecified)	14µM*
O=S(=O)(c1ccccc1C(F)(F)F)N1CCOCC1	-5%
O=S(=O)(c1ccc(Cl)cc1)N1CCN=C1SCc1cccc(Cl)c1	-11%
Cc1ccc(O)c(NC(=O)COc2cc(C)ccc2C)c1	-8%
CCOC(=O)c1cc2sc(C)cc2n1CC(=O)N1CCOCC1	-9%
CCOC(=O)/C=C/C(=O)OCC(=O)Nc1ccc(Cl)cn1	-14%
Nc1cccc2c1C(=O)N(C(=O)c1cccc(S(=O)(=O)N3CCCC3)c1)C2=O	?
CCc1ccc(NC(=O)c2cnc3scc(C)n3c2=O)cc1	?
COc1ccc(/C=C/C(=O)NCCSCc2ccco2)cc1	14µM*
CCCCN(C)CCCNC(=O)Cn1c(=O)sc2ccccc21	-9%
O=C(c1cccn2c(=O)c3ccc(Cl)cc3nc12)N1CCN(Cc2ccc3c(c2)OCO3)CC1	?
Cc1csc2ncc(C(=O)NC(C)c3ccccc3)c(=O)n12 (stereo unspecified)	?
Cc1ccc(N2C(=O)C3NN=C(C(=O)OCc4ccccc4)C3C2=O)cc1 (stereo unspecified)	2%
C#CCOCCOCCOCCNc1nc(N2CCN(C(=O)[C@H](C(C)C)n3cc(CCO)nn3)CC2)nc(N2CCN(C(=O)[C@H](CCCCN)n3cc(CCCC)nn3)CC2)n1	0%
CCOC(=O)c1sc2nc(C)cc(-c3ccccc3)c2c1N	-25%
COc1cccc(-n2nnnc2SCC(=O)Nc2cccc(C)n2)c1	-3%
Cc1nc(N)sc1-c1nnc(SCC(=O)Nc2ccccc2C(F)(F)F)n1C	-2%
CC1CCN(C(=O)/C=C/c2ccc(C(C)(C)C)cc2)CC1	16µM*
COc1ccccc1CNC(=O)c1c(-c2ccccc2)nn(-c2ccccc2)c1C	-15%

4 of the compounds above, comma-delimited.
Compound,HPGD block
CCOC(=O)/C=C/C(=O)OCC(=O)Nc1ccc(Cl)cn1,-14%
Nc1cccc2c1C(=O)N(C(=O)c1cccc(S(=O)(=O)N3CCCC3)c1)C2=O,?
CCc1ccc(NC(=O)c2cnc3scc(C)n3c2=O)cc1,?
COc1ccc(/C=C/C(=O)NCCSCc2ccco2)cc1,14µM*

Reprinted at random: two compounds from above, in no set order.
SMILES	HPGD block
Cc1ccc(-c2csc3ncnc(Oc4ccc5c(C)cc(=O)oc5c4)c23)cc1	?
Cc1ccc(/C=C/C(=O)Nc2cccc3ncccc23)o1	32µM*

Further records
SMILES	HPGD block
CCOC(=O)/C(=N\Nc1ccc(Cl)cc1)c1csc(Nc2ccccc2)n1	?
Cc1nnc(SCC(=O)Nc2ccc(Cl)cn2)[nH]c1=O	-4%
O=C(OCCN=C1NS(=O)(=O)c2ccccc21)c1cccnc1	-5%
CCC(=O)NCCCOc1ccccc1	-3%
O=C(c1cccc(Br)c1)c1conc1C(=O)c1ccco1	-5%
Cc1cccc(C)c1NC(=O)Cn1nc(-c2ccccc2)nc1-c1ccccc1	-7%
COc1ccccc1NS(=O)(=O)c1ccc(Cl)cc1	-11%
Cc1nc(C(C)(C)O)n(-c2ccccc2)n1	-2%
COc1cc(CC(=O)OCC(=O)Nc2cc([N+](=O)[O-])ccc2Cl)cc(OC)c1OC	-12%
COc1ccccc1Nc1nc(N)nc(CSc2nccc(C)n2)n1	-4%
COc1ccc(Cn2c(N)c(C#N)c3nc4ccccc4nc32)cc1OC	4%
COc1ccc2nc(C)cc(SCC(=O)N/N=C/c3ccccc3)c2c1	-18%
Cc1cccc(NC(=O)C23CCC(C)(C2Br)C3(C)C)c1 (stereo unspecified)	-6%
NCC1CCC(C(=O)O)CC1 (stereo unspecified)	-3%&-6%
CNC(=O)C12CCC(C)(c3nc4cc(C)c(C)cc4nc31)C2(C)C (stereo unspecified)	-6%
CCC(C(=O)Nc1cc(C)nn1-c1nc(C)cc(C)n1)c1ccccc1 (stereo unspecified)	-15%
Cc1cccc(C2CC(c3ccccc3)Nc3ncnn32)c1 (stereo unspecified)	-2%
COc1ccc(C(C(=O)NC2CCCC2)N(C(=O)c2snc(-c3ccc(F)cc3)c2N)c2ccccc2)cc1 (stereo unspecified)	-16%
CC(=O)C1C(c2cccc(Oc3ccccc3)c2)NC(=O)NC1(O)C(F)(F)F (stereo unspecified)	5%
CCN(CC)CCNC(=O)c1c(C)n(-c2ccccc2)c2cc(Br)c(OC)cc12	-6%
CC(OC(=O)c1cc2c(ccc3ccccc32)oc1=O)c1nc2ccccc2s1 (stereo unspecified)	?
Nc1c(C(=O)N2CCCCC2)sc(=S)n1-c1ccccc1	3.2µM*
Nc1nc2ccc(OC(F)(F)F)cc2s1	-15%&-16%&-9%&-12%
O=C(Nc1cccc(F)c1)NC1CC2CCCC(C1)N2C1CC1 (stereo unspecified)	-3%
COc1ccc(OC)c(NC(=O)C2CCCN(S(=O)(=O)c3cccc4nsnc34)C2)c1 (stereo unspecified)	-14%
COc1ccccc1N1CCN(C[C@@H](O)COc2cccc3ccccc23)CC1	-13%&-9%
Cc1cc2n(c1)CCn1c(C)ccc1-2	-22%
O=C(Nc1cc(C(F)(F)F)ccc1-n1cncn1)c1ccc(Cl)cc1	-7%
CCn1c(SCC(=O)N2CCOCC2)nc(O)cc1=O	-28%
C=CCn1c(SCC(=O)NC2CCCCC2)nnc1-c1sc(N)nc1C	-17%
S=C(Nc1cccc(Cl)c1)N1CCN(Cc2ccccc2)CC1	-12%
CN(C)c1ncc2ncc(=O)n(Cc3ccc(F)cc3)c2n1	?
CCOc1ccc(CCNC(=O)C2CCN(c3nnc(-n4cccc4)s3)CC2)cc1	-9%
O=C(Cn1c(=O)n(Cc2ccco2)c(=O)c2cc(Cl)ccc21)NCC1CCCO1 (stereo unspecified)	1%
O=C(Nc1ccc(-c2nc3ccccc3o2)c(O)c1)c1cc(-n2cnnc2)ccc1Cl	-16%
CCOc1ccc(CCNC(=O)COC(=O)c2nc3nc(C)cc(C)n3n2)cc1OCC	-5%
COc1cc(-c2nc(-c3ccc(C)nc3OC)no2)cc(OC)c1OC	-10%
N#CC1=C(N)Oc2cc(N)ccc2C1C1CCCCC1 (stereo unspecified)	-12%
C/C(=N/Nc1nc(-c2ccccc2)cc(-c2ccccc2)n1)c1ccc(N)cc1	-19%
Cc1c(N=C2SCC(=O)N2/N=C\c2ccc(Br)cc2)c(=O)n(-c2ccccc2)n1C	-2%
CCCCC(=O)Nc1cc(C)c2c(=O)oc3ccccc3c2n1	-21%
CC(=O)Nc1ccc(C(=O)OCC(=O)Nc2ccccc2Sc2ccccc2)cc1	?
CC1(C)CC(=O)C(C=NC(CCC(N)=O)C(=O)O)=C(O)C1 (stereo unspecified)	-16%
Cc1ccc(NCc2nnc(SCC(=O)NCc3ccco3)n2CC2CCCO2)c(C)c1 (stereo unspecified)	-1%
O=C(c1ccc(OCC2CCCO2)cc1)N1CCN(c2ccccc2)CC1 (stereo unspecified)	-12%
O=C(Cc1ccccc1)NCC(=O)OCC(=O)c1ccc(Cl)c([N+](=O)[O-])c1	-10%
O=C(CSc1ccc2ccccc2c1)Nc1nc2ccccc2[nH]1	-13%
Cc1ccc(C)c(NC(=O)CSc2n[nH]c(-c3ccncc3)n2)c1	-17%
CCOC(=O)C1C(=O)NC(SCC(N)=O)=C(C#N)C1c1ccccc1OCC (stereo unspecified)	?
Cc1ccc(CN(CC(=O)N/N=C/c2ccccc2[N+](=O)[O-])S(=O)(=O)c2ccc(C)cc2)cc1	-18%
C[C@H](Br)C(=O)Nc1ccc(C(=O)O)c(O)c1	-8%
CN1/C(=C\C=C2\N=C(c3ccc(F)cc3)OC2=O)C(C)(C)c2ccccc21	-10%
Cn1c(=O)c2c(nc(NCc3ccc4c(c3)OCO4)n2Cc2ccccc2Cl)n(C)c1=O	-14%

Source: PubChem BioAssay
